2A firefly: lowers the firefly signal of an FMDV 2A StopGo reporter. HEK cells with a luciferase reporter of 2A StopGo recoding. Potency, µM (doses to about 57.5 µM), without a hit: at the highest dose signal change, negative = less light. 0.23% of 120,000 active; active = well fitted falling curve with a large enough effect; inconclusive = small, poorly fitted or top-dose-only effect; inactive = no such curve, though single readings can be large or run the other way; also: nearly all actives have a fitted effect of over 60% in size; overnight with compound
2A Renilla: lowers the Renilla signal of an FMDV 2A StopGo reporter; AID 1745857; 0.32% of 120,000 active; Potency, µM (titrated, usually from 57.5 µM), for the others: at the top dose signal change, negative = less light; HEK cells with a luciferase reporter of 2A StopGo recoding; active means well fitted falling curve with a large enough effect; inconclusive means small, poorly fitted or top-dose-only effect; inactive means no such curve, though single readings can be large or run the other way; also: nearly all actives have a fitted effect of over 55% in size; overnight with compound
* marks the source's active call; other numbers are inactive results; u = inconclusive; & = joins results of further samples; [ ] = remark or other dose. % is scaled to controls: 0 for no effect and ±100 for the full control effect; potency is read from the fitted curve at half-maximal effect.

Results follow in this order: 2A firefly, 2A Renilla
1) Cc1ccc(CNC(=S)Nc2cccc(Cl)c2Cl)cc1
    0%, 21%
2) CCOC(=O)c1ccccc1NC(=O)N(Cc1ccc(CC)cc1)Cc1cn[nH]c1-c1ccc(OC)cc1
    -19%, 7%
3) CCCCN(C)CCNC(=O)c1cc2c(=O)n(C)c3ccccc3c2n1C
    -20%, -10%
4) O=S(=O)(c1ccc(-c2cc(C(F)(F)F)on2)s1)N1CCN(c2ccccc2F)CC1
    -5%, 0%
5) CN1CCN(CC(=O)Nc2ccc(Cl)cc2C(=O)c2ccccc2)CC1
    -1%, 15%
6) Cc1nc(SCC(=O)NC(C)C(C)C)n(C2CCCC2)c1C (stereo not drawn)
    6%, 12%
7) COc1ccc(N2CCN(S(=O)(=O)c3ccc4c(c3)CCCN4C(C)=O)CC2)cc1
    -10%, 0%
8) Cc1ccc2cccc(NC(=O)c3ccc(-c4cccc([N+](=O)[O-])c4)o3)c2n1
    3%, -12%
9) O=C(Nc1nc(-c2ccc3ccccc3c2)cs1)c1ccc[n+]([O-])c1
    155%[activator], 5%
10) Cc1ccc(Cn2ccc(NC(=O)c3cc(-c4ccc(Cl)c(Cl)c4)on3)n2)cc1
    -18%, -14%
11) COc1cc(NC2c3ccccc3C(=O)N2Cc2ccccc2)cc(OC)c1OC (stereo not drawn)
    3%, 157%[activator]
12) Cc1cccc(NC(=O)Cn2c(=O)oc3cc(S(=O)(=O)N4CCCCCC4)ccc32)c1
    0%, 13%
13) COc1ccc(NC(=O)NC(C)c2c(-n3cccc3)sc3c2CCN(C)C3)c(OC)c1 (stereo not drawn)
    -9%, -9%
14) CCc1ccc2c(c1)cc(S(=O)(=O)c1ccccc1)c(=O)n2CC(=O)N1CCCCC1
    0%, 126%[activator]
15) O=C(Cn1nnc(-c2ccccc2)n1)N1CCC(c2nc3ccccc3s2)CC1
    11%, -4%
16) CCN1CCN(c2oc(COc3ccc(-c4ccccc4)cc3)nc2C#N)CC1
    0%, 21%
17) CCCn1c(=O)c2sccc2n2c(CCCC(=O)Nc3ccc(Oc4ccccc4)cc3)nnc12
    -1%, -5%
18) COc1cccc(CNC(=O)C2CCCN(S(=O)(=O)c3ccc4c(ccn4C)c3)C2)c1 (stereo not drawn)
    -19%, 33%[activator]
19) Cc1ccccc1C(=O)NCc1ccc2c(c1)CCN2C(=O)c1ccccc1
    -10%, -6%
20) CCCCc1ccc(NC(=O)Cn2cnc3c(oc4ccccc43)c2=O)cc1
    4%, 10%
21) CC1CN(C(=O)N2CCC(C(=O)NCc3cccs3)CC2)c2cc(Cl)ccc2O1 (stereo not drawn)
    -5%, 2%
22) O=c1oc2ccc(Cl)cc2cc1-c1cn2c(n1)sc1ccccc12
    -5%, -11%
23) C/C(=N\NC(=O)C1CC1c1ccc(C(C)(C)C)cc1)c1ccc(C(C)C)cc1 (stereo not drawn)
    -5%, -14%
24) COc1cccc(CNC(=O)Cn2nc(-c3ccc(Cl)cc3)ccc2=O)c1
    22%, -7%
25) COc1ccc2c(C)c(CC(=O)NCCN3CCOCC3)c(=O)oc2c1
    -3%, 11%
26) O=C(O)CCC(CNS(=O)(=O)c1ccc(Cl)s1)C(F)(F)F (stereo not drawn)
    11%, 12%
27) COc1ccc(CNC(=O)CSc2c3c(nc4ccc(Cl)cc24)CCCC3)cc1
    -15%, -14%
28) O=C(Cn1ncc2ccsc2c1=O)N1CCN(c2ccc(Cl)cc2)CC1
    -10%, -16%
29) O=C(CN(c1cccc(C(F)(F)F)c1)S(=O)(=O)c1ccccc1)Nc1cccc(Cl)c1
    u, 55%[activator]
30) CCC(CC)C(=O)Nc1ccc(C(=O)OCc2cc(=O)n3nc(C4CC4)sc3n2)cc1
    -22%, -11%
31) COc1ccccc1CCNC(=O)c1csc(NC2CC2)n1
    0%, -6%
32) CCCCC(=O)Nc1ccc(NC(=O)c2cccc3c(Br)cccc23)cc1OC
    19%, 2%
33) COc1cccc(NC(=O)CSc2c(C)cnc3c2c(=O)n(C)c(=O)n3C)c1
    -12%, -23%
34) COc1ccc2c(Sc3ccccc3)c(C(=O)NCc3cccc(OC)c3OC)[nH]c2c1
    -13%, 22%
35) CCOCCCNC(=O)c1ccc(C)c(C)c1
    u, -5%[1.06 µM]
36) O=C(Cc1ccc2c(c1)CCCC2)NC1CCCCC1
    90%[activator], 50%[activator]
37) O=C(NCCc1cccs1)C1CCN(c2ccc(C(F)(F)F)cn2)CC1
    -9%, 8%
38) CCOC(=O)c1oc2c(C)c(O)ccc2c(=O)c1-c1nc2ccccc2s1
    177%[activator], 13%
39) Cc1nc(CNCc2cccc(NC(=O)c3ccc(F)cc3)c2)cs1
    18%, -5%
40) COc1ccc(NS(=O)(=O)c2cc3[nH]c(=O)c(=O)[nH]c3cc2C)cc1OC
    9%&-2%, 8%&3%
41) CCN1C(=O)C(Cc2ccc(C)cc2)c2cc(Br)ccc21 (stereo not drawn)
    18%, 14%
42) CC(OC(=O)c1cccc(N(C)C)c1)C(=O)c1ccccc1 (stereo not drawn)
    176%[activator], 11%
43) CCOC(=O)Cc1ccc(NC(=O)N(Cc2ccc(OC)cc2)C2CCN(C(C)=O)CC2)cc1
    -23%, -11%
44) CCOc1cccc2sc(N3CCN(C(=O)C(C)(C)C)CC3)nc12
    29%, -3%
45) CCC1CCc2nc3sc(C(=O)Nc4cccc(F)c4)c(N)c3cc2C1 (stereo not drawn)
    84%[activator], 8%
46) O=C(Nc1ccc(I)cc1C(F)(F)F)c1cc(Cl)ccc1Cl
    22%, 22%
47) CCCCN(C)C(=O)c1ccc2c(=O)n3nc(Nc4cc(C)ccc4C)sc3nc2c1
    3%, 7%
48) CCCCc1ccc(N/C=C/C(=O)c2ccc(OCC)cc2)cc1
    14%, 4%
49) O=C(NC1CCCCCCC1)c1cc(Sc2cccc(Cl)c2)nc2ccccc12
    12%, 134%[activator]
50) C=CCNC(=O)c1cc(-c2cccc(C)c2)nc2ccccc12
    0%, 3%
51) O=C(CNC(=O)c1[nH]c2ccccc2c1Cl)NCc1ccccc1
    110%[activator], 110%[activator]
52) O=C(O)C(=O)Nc1cccc(-c2nn[nH]n2)c1
    -14%[11.5 µM], -10%
53) CCOc1ccc(N(Cc2nc3nc(C)cc(C)n3n2)S(=O)(=O)c2ccccc2)cc1
    3%, 92%[activator]
54) CCOc1ccc(CNC(=O)C2CCN(c3nnc(-n4cccc4CNc4ccc(C)cc4)s3)CC2)cc1OC
    36%[activator], 9%
55) O=c1[nH]nc(SCc2ncc(-c3ccccc3)o2)n1C1CC1
    -1%, -15%
56) Cc1nnc(NC(=O)CSc2nc3c([nH]c4ccccc43)c(=O)n2-c2ccccc2)s1
    -18%, 0%
57) CCCn1c(=O)c2sccc2n2c(CCCC(=O)N3CCN(c4ccc(OC)cc4)CC3)nnc12
    14%, 5%
58) O/N=C/c1ccc(OCc2ccc(Cl)cc2)cc1
    222%[activator], 5%
59) COC(=O)c1cccnc1-n1c(=O)c2cccnc2n(CC(=O)Nc2cccc(C)c2)c1=O
    -11%, -3%
60) COc1cccc(Cn2nnc(C(=O)NCc3ccc(Cl)cc3Cl)c2N)c1
    -9%, -4%

The listing continues.
Results follow in this order: 2A firefly, 2A Renilla
61) COc1ccccc1Oc1c(C)oc2cc(OCC(=O)NCc3cccs3)ccc2c1=O
    -14%, -7%
62) CCNC(=O)C1(NC(=O)Cc2coc(-c3ccccc3)n2)CCCCC1
    3%, -12%
63) CCOc1ccc2nc(SCC(=O)N3CCN(S(=O)(=O)c4ccccc4)CC3)[nH]c2c1
    -18%, -16%
64) COc1cc(/C=C(/C#N)c2ccccc2)ccc1OCCOc1ccccc1
    0%, -2%
65) CCN(CC)CCCC(C)NCc1cc(Br)cs1 (stereo not drawn)
    -9%, -19%
66) COc1ccc(Cl)cc1N(CC(=O)N1CCN(C)CC1)S(=O)(=O)c1ccccc1
    -7%, 54%[activator]
67) Fc1ccccc1CSCc1ccc(-c2nc(-c3ccccc3)no2)o1
    0%, -12%
68) c1cc(CNCCCN2CCCCC2)ccn1
    -15%, 1%
69) Fc1ccccc1-c1nnc(SCc2c(F)c(F)c(F)c(F)c2F)n1C1CC1
    u, u
70) Cc1ccc(OCC(=O)Nc2nonc2C)cc1C
    3%, -11%
71) CN1CCN(CC2CNCCO2)CC1 (stereo not drawn)
    1%, 5%
72) O=C(c1cc2ccc3cccnc3c2[nH]1)N1CCN(c2cccc(Cl)c2)CC1
    -13%, 15%
73) O=C(CSc1nccn1-c1ccc(Cl)cc1)Nc1nc2ccccc2s1
    14%, 4%
74) Cc1ccc(NC(=O)C2CCN(c3ncccn3)CC2)cc1F
    8%, -16%
75) Cc1cccc(NC(=O)c2cc(-c3cccs3)nc3ccccc23)n1
    -8%, -6%
76) CCOc1ccc(NC(=O)CCS(=O)(=O)c2ccc3c(c2)CCN3C(=O)CC)cc1
    -13%, -12%
77) COc1ccccc1CNC(=O)Cc1c(C)nc2ccccc2c1C
    -24%, -30%
78) CCn1c(SCC(=O)Nc2ccc(C)cc2Br)nnc1-c1nonc1NC(C)=O
    -6%, -17%
79) CCOc1ccccc1NC(=O)Cn1c(=O)ccc2cc(S(=O)(=O)N3CCCC3)ccc21
    7%, -3%
80) CCCN(Cc1cc2cccc(C)c2[nH]c1=O)C(=O)c1cccc(Cl)c1
    -6%, -1%
81) Cc1ccc(NC(=O)C2CCCN(S(=O)(=O)c3cn(C(C)C)cn3)C2)c(C)c1 (stereo not drawn)
    37%[activator], 31%[activator]
82) O=C(CSc1nc2ccccc2nc1N1CCCC1)N1CCN(c2ccccc2)CC1
    -9%, -2%
83) CO[C@H]1C=CO[C@@]2(C)Oc3c(C)c(O)c4c(O)c(c(/C=N/N5CCN(C)CC5)c(O)c4c3C2=O)NC(=O)/C(C)=C\C=C[C@H](C)[C@H](O)[C@@H](C)[C@@H](O)[C@@H](C)[C@H](OC(C)=O)[C@@H]1C
    -19%, -27%
84) COc1cc(NC(=O)CSc2nc3ccccc3nc2Cc2ccccc2OC)cc(OC)c1
    -5%&-9%, 3%&-9%
85) O=C1CN(C(=O)COc2ccc(Cl)cc2)C(c2ccccc2)c2cc(Br)ccc2N1 (stereo not drawn)
    -23%, 3%
86) CCSC1=C(C#N)C(c2ccc(OC)c(OC)c2)C2=C(CC(C)(C)CC2=O)N1 (stereo not drawn)
    3%, 13%
87) CCC(=O)NCCc1sc2nc(-c3ccc(OC)cc3)nn2c1C
    229%[activator], 13%
88) CC(Sc1ccc(C(F)(F)F)cn1)C(=O)Nc1ccccc1 (stereo not drawn)
    24%, 22%
89) Cc1ccccc1CNC(=O)c1csc(-c2cccs2)n1
    0%, 58%[activator]
90) O=C(NCC(c1ccco1)S(=O)(=O)c1ccc(Cl)cc1)c1ccccc1F (stereo not drawn)
    48%[activator], 47%[activator]

Some of the entries so far, in transposed form.
(68) c1cc(CNCCCN2CCCCC2)ccn1
(69) Fc1ccccc1-c1nnc(SCc2c(F)c(F)c(F)c(F)c2F)n1C1CC1

entry no.	68	69
2A firefly	-15%	u
2A Renilla	1%	u

(further entries)
Results follow in this order: 2A firefly, 2A Renilla
91) COc1cc(CC(=O)Nc2cc(S(=O)(=O)N3CCCCC3)ccc2C)cc(OC)c1OC
    u, u
92) CCCCCCc1ccc(C(=O)Nc2cccc(C)c2)cc1
    90%[activator], 2%
93) COc1cc([N+](=O)[O-])cc2cc(C(=O)N3CCN(C45CC6CC(CC(C6)C4)C5)CC3)c(=O)oc12
    0%, -1%
94) Cc1oc(-c2ccc(Cl)cc2)nc1CSc1nc2c(c(=O)[nH]1)CCC2
    -2%, -7%
95) Cc1cccc(C(=O)Nc2cc(-c3nc4cccnc4s3)ccc2C)c1
    23%, -7%
96) O=C(/C=C/c1ccccc1)NNC(=S)NCc1ccccc1
    32%[activator], 6%
97) CC(C)[C@H](NC(=O)[C@@H]1Cc2ccccc2CN1C(=O)OC(C)(C)C)C(=O)NCC1CCCO1 (stereo partly drawn)
    -8%, 0%
98) Cc1ccc(N(C)C(=O)C2CCN(S(=O)(=O)c3c(C)noc3/C=C/c3c(C)cc(C)cc3C)CC2)cc1
    -17%, -7%
99) O=C(Nc1ccc(Cl)cc1C(F)(F)F)c1ccc2ccccc2c1
    116%[activator], 3%
100) Cc1ccc(NC(=O)Nc2ccccc2OCc2cc(=O)n3cccc(C)c3n2)cc1Cl
    30%, 5%
101) CC1=C(c2ccc(C(C)C)cc2)S(=O)(=O)NC1=NCCCN1CCN(c2ccccc2F)CC1
    32%[activator], 171%[activator]
102) O=C(CSc1nc2ccccc2n1Cc1ccccc1)NCc1ccccc1
    1%, 19%
103) COC(=O)c1nnn(CC(=O)NC(=O)Nc2ccccc2F)c1C(=O)OC
    -1%, -13%
104) Cc1ccc(-n2ncc3c(NC4CCCCCC4)ncnc32)cc1
    188%[activator], 2%
105) CCn1cc(C(=O)NC2CCN(C3CC3)CC2)c2ccccc21
    -8%, -15%

Reprinted at random: 7 records from the list, in no set order.
Results follow in this order: 2A firefly, 2A Renilla
92) CCCCCCc1ccc(C(=O)Nc2cccc(C)c2)cc1
    90%[activator], 2%
95) Cc1cccc(C(=O)Nc2cc(-c3nc4cccnc4s3)ccc2C)c1
    23%, -7%
98) Cc1ccc(N(C)C(=O)C2CCN(S(=O)(=O)c3c(C)noc3/C=C/c3c(C)cc(C)cc3C)CC2)cc1
    -17%, -7%
97) CC(C)[C@H](NC(=O)[C@@H]1Cc2ccccc2CN1C(=O)OC(C)(C)C)C(=O)NCC1CCCO1 (stereo partly drawn)
    -8%, 0%
94) Cc1oc(-c2ccc(Cl)cc2)nc1CSc1nc2c(c(=O)[nH]1)CCC2
    -2%, -7%
105) CCn1cc(C(=O)NC2CCN(C3CC3)CC2)c2ccccc21
    -8%, -15%
102) O=C(CSc1nc2ccccc2n1Cc1ccccc1)NCc1ccccc1
    1%, 19%
